Rce1 inh = yeast Ras-converting enzyme inhibition. Q03530. yeast membranes, quenched prenylated peptide cleavage fluorescence. calls only. 290,000 compounds, 0.27% hits. AID 2563;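 active = fall in fluorescence gain of 50% or more versus controls, with final raw signal at or below 3038400; inconclusive = same 50% fall but final raw signal above 3038400; inactive = fall in fluorescence gain under 50%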;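 note: plate controls were neutral control wells for no effect and wells lacking membranes for full effect; tested at 10 µM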
Target sequence (Q03530 whole entry, looked up): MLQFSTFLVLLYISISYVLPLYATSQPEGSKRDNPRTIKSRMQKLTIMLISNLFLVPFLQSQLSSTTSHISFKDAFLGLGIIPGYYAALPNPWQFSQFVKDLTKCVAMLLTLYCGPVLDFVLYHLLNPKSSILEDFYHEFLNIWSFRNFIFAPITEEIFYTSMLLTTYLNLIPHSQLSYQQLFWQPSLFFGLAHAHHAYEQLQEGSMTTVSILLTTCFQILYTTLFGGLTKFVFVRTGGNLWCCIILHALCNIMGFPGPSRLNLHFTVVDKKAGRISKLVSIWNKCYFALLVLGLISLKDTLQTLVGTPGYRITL
eIF4H FP inh = inhibitors of RNA binding by human eIF4H; 290,000 compounds, 0.94% hits; AID 2012; eIF4H fluorescence polarization binding assay; Q15056; inhibition, % at 35 µM;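 active = 50% or more with normal probe brightness, or confirmed in later tests; inconclusive = above 50% with abnormal brightness, or retests that disagree; inactive = below 50% or failed in later tests; about a fifth of its hits are not listed in these tables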;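 note: calls also rest on retests at 20 µM and on dose response follow-up; 0% = protein and probe with vehicle and 100% = probe without protein; strong numbers were not always called active; many hits fall short of the cut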
MT1-MMP act inh = blocks activation of human MT1-MMP; GFP/RFP ratio change, % at 20 µM; P50281; HT1080 RFP-PRO-GFP cells, GFP/RFP ratio fluorescence, overnight; percent of plate control window, DMSO zero; 360,000 compounds, 0.061% hits; AID 651647;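 active = GFP/RFP ratio change of at least 30% with cell ATP level not reduced by more than half and red fluorescence within 50% of control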; note: strong numbers were not always called active
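Assay system: HT1080 RFP-PRO-GFP cells | Dosing: 20 µM single dose, 1% DMSO | Incubation: Cells overnight before dosing, compound overnight, 37 °C, 5% CO2 | Evaluation: GFP/RFP fluorescence ratio | Control set: DMSO-only wells and HT1080 RFP-L50D-GFP cell wells as references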
HIV Env fusion = inhibitors of HIV Env-mediated cell fusion; HeLa-JRFL Env/CEM21 cell fusion, luciferase; inhibition, % at 12.3 µM; 360,000 compounds, 1.1% hits;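 active = mean replicate inhibition score of at least 50 and every replicate individually at or above 50; inconclusive = only one of the two criteria met; inactive = mean below 50 and not all replicates reaching 50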;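 note: 0% = plate neutral controls and 100% = maraviroc near 300 nM; one replicate is shown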
PABP polyA inh = PABP-poly(A) binding inhibition | P11940 | PABP-poly(A) RNA binding, fluorescence polarization | inhibition, % at 35 µM | 290,000 compounds, 1% hits | AID 2014;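 active = 50% or more with normal probe brightness, or confirmed in later tests; inconclusive = above 50% with abnormal brightness, or retests that disagree; inactive = below 50% or failed in later tests; about a fifth of its hits are not listed in these tables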;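 note: calls also rest on retests at 20 µM and on dose response follow-up; controls were probe without protein and protein plus probe with vehicle; some compounds called inactive have numbers as strong as hits; many hits fall short of the cut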
UUG fidelity = modulators of start codon recognition fidelity in yeast; S. cerevisiae UUG-firefly luciferase reporter, luminescence/redox ratio; activity score, % at 18.7 µM; 350,000 compounds, 0.13% hits;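 active = replicate mean at a twofold rise or more, about +100% in these data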;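 note: firefly luciferase made from a UUG start codon reports start codon fidelity; reporter light over untreated wells divided by growth signal over untreated wells; some hits fall short of that in this replicate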
CSC inhib = blocks cancer stem cells. 300,000 compounds, 1.1% hits. cancer stem cell-like cells viability, luminescence. inhibition, % at 7.5 µM;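 active = mean at 75% or more and at least half the replicates too; inconclusive = mean and replicates disagree; tested in HMLE shEcad cells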;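 note: 0% = median of negative and 100% = median of positive control wells; the first replicate is given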
eIF4H FP inh retest = recorded beside eIF4H FP inh, whose call it bears; inhibition, %; compound at 20 µM; confirmation average;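 mean of two retest wells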
PABP polyA inh retest = second read-out of PABP polyA inh, no call of its own (marks repeat the call); inhibition, %; compound at 20 µM; confirmation repeats;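 mean of two retest wells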
MT1-MMP act inh RFP = further read-out of MT1-MMP act inh, marked with its call; RFP signal change, %; measured here: RFP expression control read;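 0 = vehicle wells; hits needed this value within 50% of zero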
* = called active by the depositor.

CC(C)(O)CCCC(C)(O)c1ccc(C(=O)O)cc1O (centres undefined) was read as eIF4H FP inh 84*, MT1-MMP act inh -3, PABP polyA inh 49, UUG fidelity -21, CSC inhib -5, eIF4H FP inh retest 83*, PABP polyA inh retest 42 and MT1-MMP act inh RFP 5.
`O=C(NC1CC1)C1CCN(C2CCN(C(=O)/C=C/c3cccs3)CC2)CC1` gave Rce1 inh inactive, eIF4H FP inh -2, MT1-MMP act inh 0, HIV Env fusion -8, PABP polyA inh -3, CSC inhib -7 and MT1-MMP act inh RFP 1.
`CCCCN(CC)CCCNC(=O)c1cc2cc3ccc(OC)cc3nc2o1` gave Rce1 inh inconclusive, eIF4H FP inh -8, MT1-MMP act inh 14, HIV Env fusion -214, PABP polyA inh -6, UUG fidelity -4, CSC inhib -28 and MT1-MMP act inh RFP 8.
O=C(COC(=O)c1cc(S(=O)(=O)N2CCCCC2)ccc1N1CCOCC1)c1ccc(F)cc1 was read as Rce1 inh inactive, MT1-MMP act inh 2, HIV Env fusion -4, CSC inhib -8 and MT1-MMP act inh RFP 2.
Cc1ccc(C)c(OCC(=O)NCCN(C)C)c1 was read as Rce1 inh inactive, eIF4H FP inh -1, MT1-MMP act inh 5, PABP polyA inh 5, UUG fidelity -3, CSC inhib -4 and MT1-MMP act inh RFP 4.
`CC(C)(c1ccccc1)c1ccc(OCC(O)CN2CCCC2)cc1` (centres undefined) gave Rce1 inh inactive, eIF4H FP inh -11, MT1-MMP act inh 1, HIV Env fusion 11, PABP polyA inh 5, UUG fidelity 1 and MT1-MMP act inh RFP 1.
Screening COc1cc(NC(=O)C2CC(c3cccc(OC)c3OC)=NO2)cc(OC)c1OC (centres undefined) returned Rce1 inh inactive, eIF4H FP inh 4, MT1-MMP act inh -1, HIV Env fusion -11, PABP polyA inh 9 and MT1-MMP act inh RFP -9.
For CC(=O)c1ccc(NC(=O)COC(=O)c2ccc(F)cc2F)cc1 the results were Rce1 inh inactive, eIF4H FP inh -9, MT1-MMP act inh 1, HIV Env fusion -3, PABP polyA inh -1, UUG fidelity 12, CSC inhib -1 and MT1-MMP act inh RFP 1.
Screening Cn1c(N)c(C(=O)COC(=O)c2cncc(Br)c2)c(=O)n(C)c1=O returned Rce1 inh inactive, eIF4H FP inh 30, MT1-MMP act inh -4, HIV Env fusion 0, PABP polyA inh -6, CSC inhib -10 and MT1-MMP act inh RFP 2.
Cc1ccc(S(=O)(=O)N2CCN(CC(=O)N/N=C/c3ccco3)CC2)cc1 was read as Rce1 inh inactive, eIF4H FP inh -7, MT1-MMP act inh -7, HIV Env fusion 1, PABP polyA inh 0, CSC inhib 8 and MT1-MMP act inh RFP -2.
Screening Nc1c(C(=O)Nc2ccc3c(c2)OCCO3)nnn1Cc1cccc(F)c1 returned Rce1 inh inactive, MT1-MMP act inh 5, HIV Env fusion -81, UUG fidelity 3, CSC inhib 41 and MT1-MMP act inh RFP -2.
Screening COCCCN(C(=S)Nc1c(C)cc(C)cc1C)C(C)c1ccccn1 (centres undefined) returned Rce1 inh inactive, eIF4H FP inh 2, MT1-MMP act inh -9, HIV Env fusion 11, PABP polyA inh -1, CSC inhib 17 and MT1-MMP act inh RFP 2.
`Cc1cc(=O)n2nc(N3CCC(C(=O)N4CCN(c5ccccc5)CC4)CC3)sc2n1` gave Rce1 inh inactive, eIF4H FP inh -15, MT1-MMP act inh -1, HIV Env fusion 3, PABP polyA inh -4, UUG fidelity -12, CSC inhib 0 and MT1-MMP act inh RFP 3.
For COc1cc(NC(=O)C2CC(=O)NC3=C2C(=O)CCC3)c(OC)cc1Cl (centres undefined) the results were Rce1 inh inactive, eIF4H FP inh 3, MT1-MMP act inh 9, PABP polyA inh -4, UUG fidelity -11, CSC inhib -8 and MT1-MMP act inh RFP 5.
`CCOc1ccccc1-c1nc2c([nH]1)c(=O)n(C)c(=O)n2C` gave Rce1 inh inactive, eIF4H FP inh 3, MT1-MMP act inh 1, HIV Env fusion -32, PABP polyA inh 2, UUG fidelity -10, CSC inhib 8 and MT1-MMP act inh RFP -3.
For Cc1c(Cl)cccc1NC(=O)CNC(=O)C1CC(=O)N(CCc2ccccc2)C1 (centres undefined) the results were MT1-MMP act inh -1, UUG fidelity -12, CSC inhib -10 and MT1-MMP act inh RFP -5.
Cc1ccc(NC(=O)c2cc(N(C)C)ccc2[P+](=O)O)cc1 was read as eIF4H FP inh 10, MT1-MMP act inh 3, PABP polyA inh 13, UUG fidelity -2, CSC inhib -1 and MT1-MMP act inh RFP 2.
Screening CCOC(=O)/C=C/C(=O)NNC(=O)c1ccccc1Cl returned Rce1 inh inactive, eIF4H FP inh 4, MT1-MMP act inh 0, HIV Env fusion -3, PABP polyA inh 6, CSC inhib -10 and MT1-MMP act inh RFP 6.
Screening COc1ccc(COC(=O)N/N=C(\C)CC(=O)NCc2ccc(Cl)cc2)cc1 returned Rce1 inh inactive, eIF4H FP inh 0, MT1-MMP act inh 1, HIV Env fusion 9, PABP polyA inh -8, CSC inhib 0 and MT1-MMP act inh RFP 1.
Screening O=C(COC(=O)/C=C/c1ccccc1[N+](=O)[O-])Nc1ccc(OC(F)F)cc1 returned Rce1 inh inactive, eIF4H FP inh 8, MT1-MMP act inh 1, HIV Env fusion -22, PABP polyA inh -10, UUG fidelity -20, CSC inhib -5 and MT1-MMP act inh RFP 2.
`O=C(Nc1cc2c3c(c1)CC(=O)N3CCC2)C1CC1` gave Rce1 inh inactive, MT1-MMP act inh 1, HIV Env fusion 1, UUG fidelity 1, CSC inhib 10 and MT1-MMP act inh RFP 6.
Screening CC(=O)Nc1ccccc1NS(=O)(=O)c1ccccc1[N+](=O)[O-] returned Rce1 inh inactive, eIF4H FP inh -1, MT1-MMP act inh 1, HIV Env fusion -7, PABP polyA inh 7, CSC inhib -1 and MT1-MMP act inh RFP 2.
`Cn1nc(-c2ccccc2)c(-c2nc(-c3cccc(Cl)c3)no2)c1Cl` gave Rce1 inh inactive, eIF4H FP inh 1, MT1-MMP act inh -8, HIV Env fusion -48, PABP polyA inh -1, UUG fidelity -11, CSC inhib -20 and MT1-MMP act inh RFP -6.
COc1ccc(OC)c2nc(-c3cccnc3)ccc12 was read as Rce1 inh inactive, eIF4H FP inh -2, MT1-MMP act inh -2, HIV Env fusion -13, PABP polyA inh -4, UUG fidelity -12, CSC inhib -12 and MT1-MMP act inh RFP 1.
O=C(CCCCn1c(=S)[nH]c2ccsc2c1=O)NCc1ccc2c(c1)OCO2 was read as Rce1 inh inactive, eIF4H FP inh 4, MT1-MMP act inh 0, HIV Env fusion 7, PABP polyA inh 0, UUG fidelity -18, CSC inhib 12 and MT1-MMP act inh RFP -4.
For COCOc1ccc(C=O)c(O)c1 the results were Rce1 inh inactive, MT1-MMP act inh 0, UUG fidelity -16, CSC inhib 0 and MT1-MMP act inh RFP 2.
`COC(=O)c1cc(OC)c(OC)cc1NC(=S)N1CCCC(CO)C1` (centres undefined) gave Rce1 inh inactive, eIF4H FP inh -1, MT1-MMP act inh -2, HIV Env fusion -101, PABP polyA inh -9, UUG fidelity -13, CSC inhib 6 and MT1-MMP act inh RFP 4.
CC(=O)c1ccc(-c2ccc(C(=O)N3CCC(C(N)=O)CC3)o2)cc1 was read as Rce1 inh active, MT1-MMP act inh -5, HIV Env fusion -14, UUG fidelity -16, CSC inhib 8 and MT1-MMP act inh RFP -8.
COc1ccc(C2Nc3ccc4ccccc4c3-c3c2c(=O)oc2ccccc32)cc1 (centres undefined) was read as Rce1 inh inactive, eIF4H FP inh -5, MT1-MMP act inh -2, PABP polyA inh -2, UUG fidelity -15, CSC inhib 49 and MT1-MMP act inh RFP 1.
`Nc1nc(NCc2ccccc2)nc(NCCO)c1[N+](=O)[O-]` gave Rce1 inh inactive, eIF4H FP inh 0, MT1-MMP act inh 3, HIV Env fusion 63*, PABP polyA inh -7, UUG fidelity -8, CSC inhib -14 and MT1-MMP act inh RFP -2.
For COCc1cc(C)nc(Nc2ccc(C)c(C)c2)c1C#N the results were Rce1 inh inactive, eIF4H FP inh -3, MT1-MMP act inh 3, HIV Env fusion 16, PABP polyA inh -1, CSC inhib 6 and MT1-MMP act inh RFP 1.
`Cn1c(Cl)c(/C=N/OC(=O)c2ccc(Cl)cc2)c2ccccc21` gave Rce1 inh inactive, eIF4H FP inh -6, MT1-MMP act inh -1, PABP polyA inh -5, UUG fidelity -9, CSC inhib 2 and MT1-MMP act inh RFP -2.
`Cc1ccc(C(=O)C2=C(O)C(=O)N(CCCN3CCOCC3)C23C(=O)N(C)c2ccccc23)o1` (centres undefined) gave Rce1 inh inactive, eIF4H FP inh -1, MT1-MMP act inh 0, PABP polyA inh 0, UUG fidelity -5, CSC inhib -6 and MT1-MMP act inh RFP 5.
Screening N#Cc1c(-c2ccccc2Cl)cc(C2CC2)nc1N returned eIF4H FP inh -8, MT1-MMP act inh -1, HIV Env fusion -28, PABP polyA inh 46, UUG fidelity -13, CSC inhib 10 and MT1-MMP act inh RFP -4.
For O=C(CCN1C(=O)c2cccc3cccc(c23)C1=O)NCC1CCCO1 (centres undefined) the results were Rce1 inh inactive, eIF4H FP inh 1, MT1-MMP act inh 3, HIV Env fusion -11, PABP polyA inh -8, UUG fidelity -30, CSC inhib -2 and MT1-MMP act inh RFP 3.
Screening O=C(NN=C1C2CC3CC1CC(Cl)(C3)C2)c1cccs1 returned Rce1 inh inactive, eIF4H FP inh 0, MT1-MMP act inh 0, HIV Env fusion -8, PABP polyA inh -3, CSC inhib -21 and MT1-MMP act inh RFP 8.
For NS(=O)(=O)c1ccc(NC(=O)C2C3C=CC(C3)C2C(=O)O)cc1 (centres undefined) the results were Rce1 inh inactive, eIF4H FP inh 43, MT1-MMP act inh -2, HIV Env fusion 6, PABP polyA inh 29, UUG fidelity -11, CSC inhib -20 and MT1-MMP act inh RFP 0.
CCC(C(=O)NC1CCCCC1)n1c(SCc2cccc(C)c2)nc2ccncc21 (centres undefined) was read as Rce1 inh inactive, eIF4H FP inh -4, MT1-MMP act inh 2, PABP polyA inh 7, UUG fidelity -22 and MT1-MMP act inh RFP -5.
COc1ccc(-c2csc(NC(=O)CC(C)C)n2)cc1 was read as eIF4H FP inh 2, MT1-MMP act inh -6, HIV Env fusion -47, PABP polyA inh -5, UUG fidelity -6, CSC inhib -6 and MT1-MMP act inh RFP -9.
CCOc1ccc(C(=O)N2CCn3c2nc2ccccc23)cc1 was read as Rce1 inh inactive, eIF4H FP inh 1, MT1-MMP act inh -1, HIV Env fusion 2, PABP polyA inh 4, UUG fidelity -25, CSC inhib -6 and MT1-MMP act inh RFP 1.
For CC1(C)Cc2c(sc(NC(=O)c3ccccc3Cl)c2C(=O)O)CO1 the results were Rce1 inh inactive, eIF4H FP inh -3, MT1-MMP act inh 3, HIV Env fusion 5, PABP polyA inh 3, UUG fidelity -16, CSC inhib 0 and MT1-MMP act inh RFP 3.
O=C(COC(=O)CC12CC3CC(CC(Br)(C3)C1)C2)NC(=O)NCc1ccco1 was read as Rce1 inh inactive, eIF4H FP inh -3, MT1-MMP act inh -7, HIV Env fusion 17, PABP polyA inh -3, UUG fidelity -4, CSC inhib -12 and MT1-MMP act inh RFP 0.
